# HPGD block – HPGD (human) dehydrogenase inhibition | purified HPGD, NADH fluorescence kinetic, PGE2 substrate | Potency, µM, for the others: at the top dose activity change, negative = inhibition, actives largely listed as inhibitors | 150,000 tested, 4.3% active; active = well fitted inhibition curve with a large enough effect (not every such curve was filed as active); inconclusive = small, poorly fitted or top-dose-only effect, or another doubt; inactive = no such curve, though single readings can be large or run the other way;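 further: top concentration of the series not given in the record; plate controls included wells without enzyme; inactives centre near -10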
# Target sequence (P15428 whole entry, looked up): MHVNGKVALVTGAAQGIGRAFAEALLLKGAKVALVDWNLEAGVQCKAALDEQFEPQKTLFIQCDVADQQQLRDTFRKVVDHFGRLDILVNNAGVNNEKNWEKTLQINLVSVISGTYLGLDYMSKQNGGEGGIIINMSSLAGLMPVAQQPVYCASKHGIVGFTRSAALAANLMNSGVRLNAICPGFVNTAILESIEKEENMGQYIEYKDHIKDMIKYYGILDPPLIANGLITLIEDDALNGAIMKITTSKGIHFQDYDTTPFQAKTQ
#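 20 nM HPGD preincubated 15 min at room temperature with compound in 50 mM Tris-HCl pH 8, 0.01% Tween 20. Started with 1 mM NAD+ and 30 uM prostaglandin E2; NADH fluorescence (360/450 nm) read 5 times over 30-s intervals, last minus first.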
# Numbers without * were called inactive; u = inconclusive; & = joins results of further samples. On the % scale 0 is the no-effect control and ±100 the full control effect; potency means the concentration at half of the fitted maximal effect.
SMILES,HPGD block
O=C(C1CCN(S(=O)(=O)N2CCOCC2)CC1)N1CCOCC1,-12%
O=C(CN1C(=O)COc2ccccc21)c1ccc(Cl)cc1,-4%
O=C(NCc1ccc(Cl)cc1)C(=O)NCC1OCCN1S(=O)(=O)c1cccs1 (stereo unspecified),-2%
Cc1noc(C)c1C(=O)OCC(=O)c1c[nH]c2ccccc12,-11%
O=C(O)[C@H](Cc1cc(I)c(O)c(I)c1)C1CCCCC1,-11%
CNC(=O)CSc1nnnn1-c1ccc2c(c1)OCCO2,-15%
Cc1cccc(C(=O)c2c[nH]cc2-c2ccccc2)c1,-7%
CCN(CC)c1ccc(/C=N/NC(=O)c2c(Cl)c(C)nn2C)cc1,-25%
CC(c1ccc(F)cc1)n1c(-c2ccc3ccccc3n2)n[nH]c1=S (stereo unspecified),-27%
Brc1ccc2ncnc(Nc3cccc4ccccc34)c2c1,u
Cc1ccc(NC(=O)c2ccc(OC(F)F)cc2)cc1S(=O)(=O)N(C)C,-6%
O=C(Oc1ccc(C(=S)N2CCOCC2)cc1Br)c1cc(Cl)ccc1Cl,-9%
O=C(Nc1ccccc1)c1sc(N2CCOCC2)nc1-c1ccccc1,u
NC(N)=Nc1ccc(-c2ccc(N=C(N)N)cc2)cc1,-7%
CCn1c2ccccc2c2cc(CN3CCN(C(=O)c4ccco4)CC3)ccc21,u
Cc1ccc2nc(NC(=O)c3ccc(OCC4CCCO4)cc3)sc2c1 (stereo unspecified),u
COc1cc(C(=O)N2CCC(NC(=O)C(Cc3ccccc3)NC(C)=O)CC2)cc(OC)c1OC (stereo unspecified),-3%
CCOC(=O)c1cc2occc2n1CC(=O)NC1CCCCC1C (stereo unspecified),2%
COc1ccc(C(=O)NCCn2ccc3ccccc32)cc1,-6%
C=CCSc1nnc(NC(=O)CSc2ccccn2)s1,-6%
COc1cccc(C(=O)Nc2nc(-c3ccc(S(=O)(=O)N4CCOCC4)cc3)cs2)c1,u
CC(=O)Nc1ccc(N2CCCC2)cc1,-14%
C/C(Cn1cnc([N+](=O)[O-])n1)=N\NC(=O)c1ccncc1,-4%
Cc1[nH]c2ccccc2c1C(Nc1nccs1)c1ccncc1 (stereo unspecified),-8%
COc1cc(NC(=O)CN2CCCCC2)c(C)cc1[N+](=O)[O-],-16%
O=C(COc1ccccc1)c1cn(CC(=O)N2CCOCC2)c2ccccc12,5%
CCCCn1c(/C=C/c2ccco2)nc2ccccc21,u
CCCOc1ccc(C(=O)Nc2ccc(Cl)cn2)cc1,-10%
CCCOc1ccc(NC2=CC(=O)CC(C)(C)C2)cc1,-16%
CC(C)N(C(=O)CSc1nnc(CN2CCCCCC2=O)n1-c1ccccn1)C(C)C,-6%
C=CCN(CC=C)C(=O)C(=O)c1cc(C)n(-c2ccc([N+](=O)[O-])cc2)c1C,-1%
CCC(C)C(=O)Nc1cc(OC)c(OC)cc1C(=O)O (stereo unspecified),2%
COc1ccc(Cc2nnc(SCC(=O)c3cccc([N+](=O)[O-])c3)n2C)cc1,-27%
Cn1c2ccccc2c2cc(C(=O)N3CCN(CCO)CC3)sc21,-20%
CCCCCCc1c(C[C@H](N)C(=O)O)o[nH]c1=O,-3%&-4%
COc1ccc(OC)c(C2C3=C(CCCC3=O)Nc3nnnn32)c1 (stereo unspecified),-20%
Clc1ccccc1CSc1snnc1-c1ccccc1,-4%
O=C(c1cc(-c2ccc3c(c2)OCO3)on1)N1CCN(c2ccc(F)cc2)CC1,-25%
c1ccc(Cn2cnc3ccccc32)cc1,2%
O=C(Cc1c[nH]c2ccccc12)OCCOC(=O)Cc1c[nH]c2ccccc12,-5%
CCN(CC)S(=O)(=O)c1ccc(C(=O)OCC(=O)N2CCN(C(=O)c3ccco3)CC2)cc1,-7%
CCC1CCCN1Cn1cnc2c([nH]c3ccc(C)cc32)c1=O (stereo unspecified),u
CC1(C)C(=O)Nc2ccccc2N1C(=O)COC(=O)C12CC3CC(CC(O)(C3)C1)C2,-1%
CCCC(=O)Nc1c2c(nn1-c1ccc(C)cc1C)CSC2,-2%
N#CC1=C(N)N(c2ccccc2)C(c2ccco2)C1(C#N)C#N (stereo unspecified),-14%
CC1CCCN(C(=O)CCS(=O)(=O)Cc2ccccc2)C1 (stereo unspecified),-12%
CC(C)CC(OC(=O)c1cccs1)C(=O)NCc1cccs1 (stereo unspecified),-14%
COc1ccc(N2CCN(c3nc4c(c(=O)n(C)c(=O)n4C)n3Cc3ccccc3)CC2)cc1,-1%
COc1ccc(C(=O)Nc2ccc(-c3ccc(C)o3)cc2)cc1S(=O)(=O)N1CCOCC1,-14%
CSc1ccc(CNc2ccc(C)cc2)cc1,-2%
CCN1C(=O)C=CC1=O,-11%
CC(=O)c1c(N2CCOCC2)nc(=S)n(Cc2ccccc2)c1C,-7%
Cc1cc(C)n(C(=O)C(C)n2nc([N+](=O)[O-])c(Br)c2C)n1 (stereo unspecified),-12%
Clc1ccc(-n2cccc2/C=N/n2cnnc2)cc1,-15%
Cc1[nH]oc(=O)c1N=Nc1c(Cl)cccc1Cl,-14%
CCOC(=O)c1c(N)nn(C(=O)C(C)C)c1-c1ccc(OC)cc1,-13%
CC(=O)Nc1cnc2ccccc2n1,-19%
CC1=C(C(=O)NCc2ccccc2)C(c2cccnc2)n2ncnc2N1 (stereo unspecified),1%
COc1ccccc1OCCSc1nnc(C)n1-c1ccccc1,-4%
CCOc1cc(CNc2ccc3c(c2)CCC3)ccc1OC,-14%

# Next compounds.
SMILES,HPGD block
NS(=O)(=O)c1cc2c(cc1Cl)N[C@@H](CC1CCCC1)NS2(=O)=O,0%
COc1ccccc1-n1c(SCC(=O)N2CCCC2)nc2cccnc21,u
CCS(=O)(=O)Nc1ccc2c(c1)N(C(C)=O)c1ccccc1CC2,-16%
COc1ccc(CNc2nc3nc(-c4ccccc4)cc(=O)n3[nH]2)cc1OC,-21%
FC(F)(F)c1nnc(-c2ccccc2)nc1Sc1ccccc1,-14%
Cc1nnc(N/N=C/c2ccc(O)c([N+](=O)[O-])c2)[nH]c1=O,-10%
CCOC(=O)c1sc(NC(=O)CSc2nc(-c3ccco3)cc(C(F)(F)F)n2)c(C#N)c1C,-23%
CCOCCCNCc1ccc(OC)cc1,7%
COCCn1c(=O)c(-c2ccc(OC)cc2)nc2cnc(Oc3ccccc3)nc21,u
O=C(CSc1nnc(-c2c[nH]c3ccccc23)o1)c1ccccc1,-13%
COc1ccc(NC(=O)CN(c2ccc(C)cc2)S(C)(=O)=O)c(OC)c1,-20%
CN(C)C(=O)c1ccc(-c2nccc(NCc3cccnc3)n2)cc1,14µM*
CCC(C)(c1nnnn1-c1c(C)cccc1C)N(N=O)c1ccccc1Cl (stereo unspecified),-1%
CC(=O)Nc1c(C(=O)N2CCN(c3ccccn3)CC2)cnn1-c1ccc(C)cc1,-20%
CCCN(CC1CC1)c1nc(C)nc(Nc2c(Cl)cc(Cl)cc2Cl)c1Cl,-19%&-6%
COc1cccc(/C=N\NC(=O)c2sc(N)nc2C)c1OC,-13%
O=C(c1cccc(S(=O)(=O)NCCOc2ccccc2)c1)N1CCN(c2ncccn2)CC1,-19%
Cc1oc(-c2ccccc2)nc1C(=O)OCC(=O)NC(=O)NCC(C)C,-4%
CCSc1nnc(NC(=O)C2CC=CCC2C(=O)O)s1 (stereo unspecified),-8%
O=C(Nc1cccc(F)c1)c1ccc(CSc2ccccc2)o1,u
COc1ccc(-c2nc(CS(=O)(=O)CC(=O)Nc3ccc(Cl)cc3)c(C)o2)cc1,u
O=C1CC(N2CCC(C(=O)N3CCCCC3)CC2)C(=O)N1 (stereo unspecified),-23%
CCNc1ccc(S(=O)(=O)N(C)C)cc1NCC(=O)Nc1ccccc1F,0%
COc1ccc(C(CC(=O)NCc2ccco2)c2ccc(F)cc2)cc1 (stereo unspecified),16µM*
N#CCC(=O)N/N=C1\CCCCC1C1CCCCC1 (stereo unspecified),-13%
COC(=O)c1ccccc1NC(=O)CSc1ccccn1,-19%
COc1cc(NC(=O)COC(=O)/C=C/c2c(C)nn(-c3ccc(F)cc3)c2Cl)cc(OC)c1,-22%
O=[N+]([O-])c1ccc(Oc2ccc(F)cc2Br)c2ccncc12,-17%
CC(C)OC(=O)CSc1nc2cccnc2n1-c1ccc(F)cc1,-14%
CCOC(=O)C1CCCN(c2ccc(NC(=O)c3snc4c(=O)[nH]c(C)nc34)cc2)C1 (stereo unspecified),-19%
[O-][n+]1onc2c1CCc1nnccc1-2,5%
CCOC(=O)N1CCC2(CC1)CC(=O)c1c(ccc3oc(C(=O)O)c(C)c13)O2,u
COc1ccc(OC)c(C=Nc2ccccc2-c2nc3ccccc3[nH]2)c1,u
O=C(Nc1ccc(Nc2ccccc2)cc1)C(Cl)(Cl)Cl,32µM*
CCCNS(=O)(=O)c1ccc(Oc2ncc(C(F)(F)F)cc2Cl)cc1,-14%
COC(=O)c1oc2ccc(Br)cc2c1NC(=O)c1ccccc1,u
O=[N+]([O-])c1cc(S(=O)(=O)Nc2ccccc2)ccc1NCc1cccnc1,-9%
CCC(C)NC(=O)CCCCCn1c(=O)[nH]c2cc(OC)c(OC)cc2c1=O (stereo unspecified),u
O=C(NNC(=O)c1ccc2c(c1)OCO2)NC1CCCCC1,-11%
CCCC1(C(=O)OCC)NC(c2ccc(N(C)C)cc2)C2C(=O)N(c3ccc4c(c3)OCCO4)C(=O)C21 (stereo unspecified),4%

# Two entries from above, reformatted.
HPGD block	SMILES
u	COc1ccc(OC)c(C=Nc2ccccc2-c2nc3ccccc3[nH]2)c1
u	CCOC(=O)N1CCC2(CC1)CC(=O)c1c(ccc3oc(C(=O)O)c(C)c13)O2

# The main list resumes with the seven entries that preceded the break.
SMILES,HPGD block
O=C(Nc1ccc(Nc2ccccc2)cc1)C(Cl)(Cl)Cl,32µM*
CCCNS(=O)(=O)c1ccc(Oc2ncc(C(F)(F)F)cc2Cl)cc1,-14%
COC(=O)c1oc2ccc(Br)cc2c1NC(=O)c1ccccc1,u
O=[N+]([O-])c1cc(S(=O)(=O)Nc2ccccc2)ccc1NCc1cccnc1,-9%
CCC(C)NC(=O)CCCCCn1c(=O)[nH]c2cc(OC)c(OC)cc2c1=O (stereo unspecified),u
O=C(NNC(=O)c1ccc2c(c1)OCO2)NC1CCCCC1,-11%
CCCC1(C(=O)OCC)NC(c2ccc(N(C)C)cc2)C2C(=O)N(c3ccc4c(c3)OCCO4)C(=O)C21 (stereo unspecified),4%
CCOC(=O)c1c(C)[nH]c(C)c1C(=O)CSc1ncccn1,-5%
COC(=O)c1sc(=S)n(-c2ccc(Cl)cc2)c1C,u
C=CCOC(=O)C1=C(C)NC(=O)NC1c1ccc(Cl)cc1 (stereo unspecified),-9%
COc1ccc(OCC(=O)OCCNC(=O)c2cccnc2)cc1,-10%
CCOC(=O)C1=C(CSc2nc3c(cc2C#N)CN(C)CC3)OC(N)=C(C#N)C1c1ccc(Cl)cc1 (stereo unspecified),-14%
COC(=O)c1ccccc1NC(=O)CSc1nccn1C,-11%
O=C1CN(C(=O)c2cc(Br)c(Br)s2)c2ccccc2N1,-15%
Cc1cccc(-n2cc(-c3ccccc3)c3c(NN4CCOCC4)ncnc32)c1,-5%
Cc1ccnc(NC(=O)Nc2ccc3c(c2)N(C)C(=O)CS3)c1,-9%
Cc1cc(C)c(C#N)c(SCc2ccccc2)n1,-15%
Cc1ccc2c(c1)c1c(n2C)C(C(N)=O)CCC1 (stereo unspecified),-15%
O=C1CCCCC1c1cccc2ccccc12 (stereo unspecified),0%
O=C(COC(=O)c1cncc(Br)c1)NCCC1=CCCCC1,-4%
Cc1ccc(S(=O)(=O)C(C#N)c2nc3ccccc3nc2OC(C)C)cc1 (stereo unspecified),-24%
O=C(CSc1nc2ccccc2n1CC(=O)N1CCCC1)N1CCN(C(=O)c2ccco2)CC1,-2%
CCOc1c(Br)cc(/C=C2\C(=O)N(CCC#N)N=C2C)cc1OC,5µM*
O=C(O)/C=C/c1nc(-c2ccccc2)n2ccccc12,u
Cc1cc(C)nc(/N=C(\N)Nc2ccc(C)c([N+](=O)[O-])c2)n1,-8%
Cc1cc(/C=C2/SC(=O)NC2=O)c(C)n1-c1ccc(N2CCOCC2)cc1,8.9µM*
COc1ccccc1NC(=O)N(Cc1ccccc1)c1ccccn1,-7%

# Look-ups from above.
# For HPGD block, CCN(CC)c1ccc(/C=N/NC(=O)c2c(Cl)c(C)nn2C)cc1 has the entry -25%
# For HPGD block, CC(=O)Nc1cnc2ccccc2n1 has the entry -19%
# For HPGD block, CN(C)C(=O)c1ccc(-c2nccc(NCc3cccnc3)n2)cc1 has the entry 14µM*
# For HPGD block, CC1=C(C(=O)NCc2ccccc2)C(c2cccnc2)n2ncnc2N1 (stereo unspecified) has the entry 1%
# For HPGD block, CCOC(=O)c1c(C)[nH]c(C)c1C(=O)CSc1ncccn1 has the entry -5%

# Next compounds
SMILES,HPGD block
Cc1[nH]nc2c1/C(=N/O)CC(c1ccccc1)C2 (stereo unspecified),14µM*
Cc1cc(C)c(S(=O)(=O)N2CCN(CCO)CC2)c(C)c1,-10%
CCN(CC(=O)Nc1ccc2c(c1)OCCO2)S(=O)(=O)c1ccc(C)cc1,-15%
CCn1c(=O)c2cc(C(=O)Nc3cc(C)on3)sc2c2ccccc21,u
CSc1nc(-c2ccco2)nn1C(=O)c1ccc(Cl)cc1,u
COc1cc(C2NC(=O)CS2)cc(OC)c1OC (stereo unspecified),-2%
Cc1cc(=O)n2[nH]c(-c3ccc(C(C)(C)C)cc3)cc2n1,-23%
COC(=O)c1cn(CC(=O)NCc2cccs2)c2ccccc12,-10%
C=CCN1CCc2cc(O)c(O)cc2[C@H](c2ccccc2)C1,-15%
Oc1ccc(Cl)cc1C1=Nc2ccccc2N=C(c2ccco2)C1,-13%
O=c1cc(-c2ccccc2)oc2c1ccc1ccccc12,u
CN1CCc2c(sc(N)c2C(N)=O)C1,u
Cc1cccc(CSCCNC(=O)Nc2ccccc2)c1,-11%
COCCN(CCOC)S(=O)(=O)c1ccc(C(=O)Nc2nc(-c3ccccc3)c(C(=O)c3ccccc3)s2)cc1,-21%

# Bioassay records as filed in PubChem BioAssay.

# Some of the compounds tested; count on the stated rates, not on these rows.
